Mtb hypoxia rep: inhibitors of hypoxia-regulated fluorescent reporter in Mycobacterium tuberculosis. AID 1159583. M. tuberculosis hypoxia-regulated fluorescent reporter, fluorescence. 300,000 tested, 0.1% active. fluorescence inhibition, % (no concentration beside the values);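 active = 35 to 45% if threefold the growth effect, above 45% if 1.5-fold the growth effect; inactive = the rest, general growth blockers included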;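 also: wells of about 50 µL received 100 nL stock; 0% = vehicle wells and 100% = reference inhibitor wells; whole bacteria with a GFP reporter of the hypoxia response; strong numbers were not always called active; many hits fall short of the cut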
Bead autofluor: compound fluorescence in toxin protease inhibitor counterscreen | compound autofluorescence counterscreen, microsphere flow cytometry; stronger effect = higher value | fluorescence intensity (no concentration beside the values) | 360,000 tested, 3.1% active;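 active = at least 3 SD above the mean of all compounds, about 16000 in these data; inconclusive = too few beads counted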;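 also: 100 nL of 1 mM stock went into each well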
BJeLR viability: BJeLR cell viability loss; BJeLR (HRASV12) viability, CellTiter-Glo ATP luminescence, 48 h; reference of the scale not given here; inhibition, % (test concentration not listed); 300,000 tested, 0.17% active; AID 1554;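 active = replicate mean above 50%; inconclusive = above 50% but judged a plate artefact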;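 also: 50 nL library stock added to about 25 µL; numbers are from one replicate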
ugtP null kill: compounds lethal to S. aureus RN4220 ugtP deletion mutant. OD600 growth, 16 h; some inactives read as strong as hits. growth inhibition, % (no concentration beside the values). 330,000 tested, 0.54% active. AID 1259309;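 active = z-score under -3 and OD600 up to 0.15 on both plates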;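 also: plate controls were untreated wells for no effect and antibiotic for full effect; wells of about 80 µL received 100 nL stock; the first replicate is given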
RN4220 kill: kills Staphylococcus aureus RN4220. S. aureus RN4220 growth, OD600, 16 h. inhibition, % (test concentration not listed). 330,000 tested, 0.33% active. AID 1259311;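 active = z-score of -3 or lower and OD600 up to 0.18 on both plates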;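 also: plate controls were untreated cells for no effect and reference antibiotic for full effect; stock transfer was 100 nL into about 80 µL; one replicate is shown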
PrP UTR inh: inhibition of PrP 5' UTR reporter expression | inhibition, % (concentration not given with the values) | cell-based PrP 5' UTR mRNA reporter, plate reader | AID 488862 | 340,000 tested, 0.35% active;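 active = every replicate at 50% or more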;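 also: 0 = median of the neutral control wells; tested in H4 reporter cells; numbers are from one replicate; inactives centre near -14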
Mtb hypoxia rep growth: recorded beside Mtb hypoxia rep, whose call it bears; growth inhibition, %; measured here: M. tuberculosis growth (absorbance);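 0% = vehicle and 100% = reference antibiotic; read after six days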
Numbers without * were called inactive; ? = inconclusive; / = not tested or not shown.

Values run as follows: Mtb hypoxia rep	Mtb hypoxia rep growth	Bead autofluor	BJeLR viability	ugtP null kill	RN4220 kill	PrP UTR inh
Cn1c(=O)[nH]c(=O)c2c1nc1n2CCS1
  6	1	4912	0	-1	2.4	-12
COc1cc(C(CC(=O)Nc2cccc(C)n2)N2Cc3ccccc3C2=O)cc(OC)c1OC (stereo unspecified)
  -13	-13	3753	17	9	-0.4	-3
COc1cc(CN2CCC(C(N)=O)CC2)ccc1OCc1ccccc1
  12	8	3526	-7	15	-1.8	-36
Cc1cc(C)c(Nc2ncccc2C(=O)O)c(C)c1
  16	13	4057	-9	3	7.8	-18
Cc1nnc(SCC(=O)Nc2ccc(N3CCN(S(C)(=O)=O)CC3)cc2)o1
  4	-7	3017	-1	7	-1.0	-2
COc1ccc(N(C(C)C(=O)N/N=C/c2cccnc2)S(C)(=O)=O)cc1 (stereo unspecified)
  /	/	2447	-11	/	/	-4
CC(CCN1CCN(c2ccccn2)CC1)c1ccccc1 (stereo unspecified)
  0	2	3158	8	12	2.4	-15
CSc1cccc(N2CC(C(=O)NCCN3C(=O)S/C(=C\c4cccnc4)C3=O)CC2=O)c1 (stereo unspecified)
  -6	-1	6110	8	0	0.0	-9
Nc1ccc(SCC(=O)Nc2cccc([N+](=O)[O-])c2)cc1
  19	5	3109	-3	0	-0.2	-27
Cc1ccc(/C=N/Nc2cc(C)nc(NCc3ccccc3)n2)cc1
  /	/	6297	3	/	/	-15
CCN(CC)S(=O)(=O)c1cc(C(=O)Nc2ccccc2[N+](=O)[O-])ccc1Cl
  3	7	9810	17	1	21	-28
O=C(O)CSc1ccc(S(=O)(=O)N2CCCC2)cn1
  17	3	/	/	4	4.8	/
CC(=O)N1CCN(c2ccc(NC(=O)c3cccc(Cl)c3Cl)cc2)CC1
  /	/	3822	5	/	/	-15
CCCOc1ccc(-c2csc3ncn(Cc4ccc(C(=O)O)cc4)c(=O)c23)cc1
  /	/	4013	8	/	/	-24
CC(C)c1ccc(/C=c2\sc3nc(-c4ccncc4)nn3c2=O)cc1
  /	/	2352	-3	/	/	-18

The closing two compounds of the part above come first, to join the parts:
Values run as follows: Mtb hypoxia rep	Mtb hypoxia rep growth	Bead autofluor	BJeLR viability	ugtP null kill	RN4220 kill	PrP UTR inh
CCCOc1ccc(-c2csc3ncn(Cc4ccc(C(=O)O)cc4)c(=O)c23)cc1
  /	/	4013	8	/	/	-24
CC(C)c1ccc(/C=c2\sc3nc(-c4ccncc4)nn3c2=O)cc1
  /	/	2352	-3	/	/	-18
CCN(CC(=O)NC(C)C)C(=O)c1ccc(Cl)cc1
  8	6	10341	8	4	-1.4	-11
CCCN1C(=O)c2ccccc2NC1c1ccc(Cl)c(Cl)c1 (stereo unspecified)
  8	10	4053	9	1	-6.9	-4
CCOc1ccc(Nc2nc3c(c(=O)[nH]2)CCCC3)cc1
  7	4	3197	-7	-1	4.3	-15
Cc1ccc(OCC(=O)NCCCNC(=O)c2cccnc2)cc1C
  -6	5	5227	0	-1	-2.2	-15
O=C(NCCc1nc2ccccc2[nH]1)/C(=C/c1ccco1)NC(=O)c1ccco1
  -4	3	2544	-9	12	3.3	-101
O=C(Cn1cc([N+](=O)[O-])cn1)NCc1ccc(-n2cccn2)cc1
  5	-7	3880	3	12	2.4	-13
COc1ccc(CCNC(=O)Cn2nnc(C(=O)Nc3ccc(Br)cc3)c2N)cc1OC
  -1	2	5844	5	-2	0.2	-8
O=C(Nc1ccc([N+](=O)[O-])cc1)c1cccc(S(=O)(=O)Nc2cccnc2)c1
  /	/	4508	-7	/	/	-29
O=C(NCCS(=O)(=O)N1CCN(c2ccccc2)CC1)c1ccco1
  -10	9	5848	-4	-1	0.5	-26
COc1ccc(NC(=O)C(=O)NCCCO)cc1Cl
  1	0	2742	-11	-4	5.5	-24
COCC(=O)Nc1ccccc1C(=O)Nc1ccc(OC)cc1
  8	9	22328*	15	-2	2.2	-15
Cc1ccc(S(=O)(=O)NNC(=O)c2cccc(O)c2)cc1
  3	6	2439	3	3	5.1	-16
CC(=O)Nc1ccc(S(=O)(=O)NC2CCS(=O)(=O)C2)cc1Cl (stereo unspecified)
  -2	-1	5525	-2	2	2.1	-15
CC(=O)Nc1ccc(NC(=O)CCn2c(=S)oc3ccccc32)cc1
  1	-3	1948	-5	9	2.3	-30
CCS(=O)(=O)Nc1ccc(C2=NN(C(=O)c3ccco3)C(c3ccc(C)cc3)C2)cc1 (stereo unspecified)
  -6	3	16946*	-9	-37	37	-15
Cc1cc(C(=O)N2CCC(C(=O)O)CC2)c(C(F)(F)F)o1
  15	11	3611	0	1	1.5	-29
O=C(CCSc1nc(-c2ccco2)cc(C(F)(F)F)n1)NCC1CCCO1 (stereo unspecified)
  4	-1	2359	4	-6	2.7	-5
C=CCNC(=O)C(C#N)c1nc2ccccc2nc1N1CCN(Cc2ccccc2)CC1 (stereo unspecified)
  4	9	3332	3	3	0.4	-16
CCOc1cc(/C=N/NC(=O)c2cccnc2)ccc1OCC(=O)N1CCOCC1
  /	/	9514	-6	/	/	-19
Clc1ccccc1CSc1ncccn1
  8	5	7795	-4	-2	4.9	-17
COc1ccc(CCNC(=O)CC2SC(N)=NC2=O)cc1OC (stereo unspecified)
  3	5	2067	-4	-1	4.4	-10
COc1ccc(NC(=O)CN(C)C(=O)Cc2coc3cc(C)c(C)cc23)cc1
  11	4	5746	-1	3	3.9	-16
O=C(CNC(=O)c1cccs1)Nc1ccc2c(c1)OCCO2
  1	-15	/	-4	19	5.0	-86
COC(=O)C1=C(N)OC2=C(C(=O)CC(C)(C)C2)C1c1ccccc1OC (stereo unspecified)
  7	2	3413	-6	6	6.7	-32
COc1ccc(CNc2oc(-c3cccc4ccccc34)nc2C#N)cc1
  -2	3	19935*	5	-20	-17	-12
O=C(Nc1ccccc1C(=O)Nc1ccccc1)c1ccccc1F
  9	7	3644	-17	14	3.5	-26
CCN(CC(=O)Nc1ccccc1OC)C(=O)c1cc(-c2ccccc2)nn1-c1ccccc1
  -7	7	6552	1	11	-7.9	-12
CCOC(=O)C1CCN(C(=O)CCCOc2ccccc2)CC1
  0	-4	4279	2	0	2.8	-42
COc1cc(C2NC(=O)NC(c3ccccc3)=C2C(C)=O)ccc1OCC#N (stereo unspecified)
  -2	7	23457*	6	-2	-1.0	0
CCN1CCN(C(=O)c2ccc(C)c(S(=O)(=O)Nc3cccc(C)c3)c2)CC1
  0	6	5235	0	3	5.0	5
COc1ccc(-c2csc(-c3cccs3)n2)c(OC)c1
  7	2	3490	0	50	-11	-89
S=C1NC[C@H](c2ccccc2)N1CCCCC1CCCCC1
  /	/	4034	8	/	/	-21
O=C(/C=C/Nc1cccc(C(F)(F)F)c1)c1ccc(Oc2ncccn2)cc1
  2	8	2627	6	-14	-3.3	-56
NC(=NOC(=O)CCCOc1ccccc1)c1ccc([N+](=O)[O-])cc1
  -2	6	/	/	6	3.7	/
Cc1ccc(NC(=O)N2CCCCCC2)cc1
  12	8	/	10	4	11	-35
O=C(Nc1ccc(-c2nc3ccccc3[nH]2)cc1)c1cccc(N2C(=O)CCC2=O)c1
  /	/	2386	5	/	/	-29
CCCC(=O)Nc1ccccc1-c1nnc(SC)[nH]c1=O
  0	-4	4389	3	2	6.0	-2
Cn1c(C(=O)N2CCN(c3ccc(Cl)cc3)CC2)cc2c(=O)[nH]c3ccccc3c21
  2	5	10370	-1	9	-3.6	-24
CCC(C)c1ccccc1NC(=O)c1cc2cccc([N+](=O)[O-])c2[nH]1 (stereo unspecified)
  9	4	/	-4	-15	-2.8	/
O=C(CNC(=O)c1ccc(Br)cc1)NCC(=O)OCC(=O)c1ccccc1
  1	-10	2330	1	7	5.5	-22
Cc1cc(NCCCn2ccnc2)n2ncc(-c3ccccc3)c2n1
  /	/	2590	/	-2	-0.8	19
Cc1cc(=O)oc(C)c1C(=O)O
  3	3	10329	-7	14	1.7	-18
O=c1cc(-c2c(F)c(F)c(F)c(F)c2F)oc2ccccc12
  /	/	13309	-8	-5	2.1	-26
CSc1cccc(NC(=O)CC2Oc3ccccc3NC2=O)c1 (stereo unspecified)
  9	-4	3449	-5	5	6.0	-27
O=C(CC1CCCCC1)Nc1nc2ccccc2s1
  16	17	2485	-2	0	5.0	-98
Nc1ccc([N+](=O)[O-])cc1C(=O)NNC(=O)c1ccco1
  4	12	3122	3	-2	2.8	-6
COC(=O)C1=CO[C@@H](C)[C@@H]2CN3CC[C@]4(C(=O)Nc5ccccc54)[C@@H]3C[C@H]12
  /	/	2863	3	/	/	-4
Cc1c(Cl)cccc1NC(=S)NCCc1ccc(S(N)(=O)=O)cc1
  15	3	2488	2	3	2.6	2
COc1ccc(C[C@H]2CN3C(=NC[C@@H]3C(C)C)N2CCNC(=O)CCC2CCCCC2)cc1
  /	/	4647	11	/	/	-16
O=C(COC(=O)Cc1c[nH]c2ccccc12)Nc1ccccc1C(F)(F)F
  7	5	8779	/	1	7.5	-24
O=C(NC(Cc1ccccc1)C(=O)NCCc1ccccn1)c1cccs1 (stereo unspecified)
  3	-6	3017	-7	-5	-2.7	-12
C=CCN(c1ccccc1)S(=O)(=O)c1cccc(C(=O)Nc2cc(C)ccn2)c1
  -3	13	5666	-9	-3	3.1	-24
CCCN(CC(=O)Nc1ccccc1C)C(=O)c1ccc(S(=O)(=O)N2CCCCC2)cc1
  -8	-4	5118	-15	-4	-0.7	-19
O=C(CC(Cc1ccccc1)C(=O)O)Nc1cccc(C(F)(F)F)c1 (stereo unspecified)
  9	2	2920	-2	11	1.8	-6
Cc1cccc(OCC(=O)N(C)c2c(N)n(Cc3ccccc3)c(=O)[nH]c2=O)c1C
  -2	7	?	/	-2	3.2	-6
CCCOc1ccc(-c2c(C(=O)NN=C(C)c3ccco3)nnn2-c2nonc2N)cc1
  -11	0	/	/	-10	-4.4	/
O=C(NCc1nc2ccccc2[nH]1)C1=C[C@H](c2coc3ccccc3c2=O)C[C@H](OCc2ccc(CO)cc2)O1
  /	/	3783	-4	/	/	-15
CN(Cc1ccccn1)Cc1nc(COc2ccccc2)no1
  -11	-1	4009	12	3	4.2	-1
O=C(CSc1nc(-c2ccccc2)nn1C(=O)c1ccccc1)Nc1cccc([N+](=O)[O-])c1
  9	5	9609	8	-14	18	-10
O=C(C1CCCCC1)N(Cc1ccccc1)c1ccccn1
  11	8	4372	-4	6	6.4	-8

Next results.
Values run as follows: Mtb hypoxia rep	Mtb hypoxia rep growth	Bead autofluor	BJeLR viability	ugtP null kill	RN4220 kill	PrP UTR inh
Cc1cc(C(=O)OCC(=O)c2cccs2)ccc1[N+](=O)[O-]
  6	12	/	/	7	3.8	-19
COc1ccc(CCNC/C=C/c2ccccc2)cc1
  /	/	4698	-20	/	/	-14
CCc1ccccc1NC(=O)c1cc2ncc(Br)cn2n1
  -3	-2	21333*	-6	4	4.0	-97
CCCn1cnc2c(=S)nc(N)[nH]c21
  5	-1	4085	10	3	5.7	-5
COC(=O)C1CCN(CC(=O)N(C)c2c(N)n(Cc3ccccc3)c(=O)[nH]c2=O)CC1
  2	-5	3866	/	4	1.4	-47
Cc1cccc(NC(=O)c2cc(NC(=O)C3CCCCC3C(=O)O)ccc2Cl)n1 (stereo unspecified)
  /	/	2233	3	-3	4.9	-8
Cc1cc(C=Nn2cnnc2)c(C)n1-c1ccc(C(=O)O)cc1
  -11	7	/	/	-4	2.6	/
CCN1C(=O)CC(C(=O)OC)=C1C
  12	16	4295	1	1	0.0	-20
CCOC(=O)C(C(C)=O)C(c1ccc(OC)cc1)C(C(C)=O)C(=O)OCC (stereo unspecified)
  /	/	5283	-7	4	-0.2	-1
COc1ccccc1NNC(=O)C(O)(c1ccccc1OC)c1ccccc1OC
  -1	2	2599	4	-8	-2.7	-17
CCn1cc(C(=O)NCCCN2CCCCCC2)c(=O)c2cc(S(=O)(=O)N3CCc4ccccc4C3)ccc21
  9	9	6181	5	-1	2.3	-27
CC1CCCC(NC(=O)COC(=O)c2cccc(NS(=O)(=O)/C=C/c3ccccc3)c2)C1C (stereo unspecified)
  8	3	2246	-11	4	5.0	-8
COc1ccc(NC(=O)Cc2ccc(Cl)c(Cl)c2)cn1
  7	9	3596	8	-1	5.0	-23
